FGF22 binding = binders of human FGF22 protein, primary screen, FGF22 synaptogenesis inhibitor project, biophysical, thermal shift, single point; AID 651658, 2012; Fibroblast growth factor 22 (Homo sapiens), Q9HCT0; calls only at 9.99 µM; 1.5% of 340,000 active; recombinant FGF22 thermal shift, SYPRO orange fluorescence; percent of sucrose octasulfate shift, DMSO zero;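 active = melting point raised past a set limit in the mean and every replicate; three in four hits are not shown here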
Target sequence (Q9HCT0 whole entry, looked up): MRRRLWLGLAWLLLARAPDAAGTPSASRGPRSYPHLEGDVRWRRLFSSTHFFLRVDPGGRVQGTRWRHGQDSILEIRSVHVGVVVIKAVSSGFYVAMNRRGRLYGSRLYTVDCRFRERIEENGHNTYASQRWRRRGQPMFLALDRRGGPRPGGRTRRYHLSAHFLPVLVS
rRNA inh HTS = reduced GFP signal of wild-type E. coli, primary screen, bacterial rRNA inhibitor project, GFP/RFP fluorescence, OD600, single point; GFP signal change (wild-type ribosome), % (concentration not given with the values); 1.6% of 350,000 active; E. coli WT GFP vs humanized-ribosome RFP mutants, 24 h; active compounds read low; DMSO median 0, no signal -100; AID 720706, 2013;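 active = significant combined selectivity score with lowered wild-type GFP, culture density cut under 30%, mutant RFP and density less affected; inactive = any of these conditions unmet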; also: one replicate is shown; some compounds called inactive have numbers as strong as hits
rRNA inh HTS OD600 = recorded beside rRNA inh HTS, whose call it bears; OD600 change, %; measured here: OD600 growth;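 optical density of the mix in the first replicate; 0 = DMSO median and -100 = no signal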
rRNA inh HTS RFP = further read-out of rRNA inh HTS, marked with its call; RFP signal change, %; measured here: RFP humanized mutant strains;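 first replicate; 0 = DMSO median and -100 = no signal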
Active calls of the source: *; i = inactive; x = no result given. Not all compounds are listed. The share of hits here may be higher or lower than overall.

Molecule	FGF22 binding	rRNA inh HTS	rRNA inh HTS OD600	rRNA inh HTS RFP
C[C@@H]1CN([C@@H](C)CO)C(=O)Cc2cc(NC(=O)Nc3ccccc3)ccc2O[C@H]1CN(C)C(=O)Nc1ccc(C(F)(F)F)cc1	i	-1	10	-2.9
O=C(Cc1ccccc1)N1CC2(C1)[C@H](c1ccccc1)[C@H](CO)N2S(=O)(=O)Cc1ccccc1	i	-3	-11	3.6
C[C@@H]1CCCCO[C@@H](CN(C)C(=O)CCCN(C)C)[C@@H](C)CN([C@@H](C)CO)C(=O)c2cc(NS(=O)(=O)c3ccc(F)cc3)ccc2O1	i	0	5	-0.9
C[C@H](CO)N1C[C@H](C)[C@H](CN(C)CC2CC2)Oc2ccc(NS(=O)(=O)c3ccccc3)cc2C1=O	i	3	-4	-1.4
CO[C@@H]1CN(C)C(=O)c2ccc(NC(=O)C3CCOCC3)cc2OC[C@H](C)N(Cc2cccnc2)C[C@H]1C	i	-4	-1	0.7
CC(C)NC(=O)N(C)C[C@H]1Oc2c(NC(=O)NC3CCCCC3)cccc2C(=O)N([C@@H](C)CO)C[C@@H]1C	i	3	5	-1.5
O=C(C[C@@H]1C=C[C@@H](NC(=O)c2cccnc2)[C@@H](CO)O1)NCc1ccc(Cl)c(Cl)c1	i	1	3	-1.2
C[C@@H]1CN([C@H](C)CO)C(=O)Cc2cc(NC(=O)CCCCCC(=O)Nc3ccccc3N)ccc2O[C@@H]1CN(C)Cc1ccncc1	i	-3	4	0.4
C[C@H]1CN([C@@H](C)CO)C(=O)c2cc(Br)cnc2O[C@H]1CN(C)Cc1ccc2c(c1)OCO2	i	2	1	-1.4
C[C@@H]1CN([C@H](C)CO)C(=O)c2cc(NC(=O)Nc3cccc4ccccc34)ccc2O[C@@H]1CN(C)S(=O)(=O)c1cn(C)cn1	i	0	-10	-0.2
N#C[C@@H]1[C@@H](c2ccccc2)[C@@H](CO)N1S(=O)(=O)c1ccc(F)cc1	i	2	7	-3.0
O=C(C[C@@H]1CC[C@@H](NC(=O)C2CCC2)[C@@H](CO)O1)NC1CCCCC1	i	4	0	0.0
CCCNC(=O)N(C)C[C@@H]1Oc2cc(C#CCOC)ccc2S(=O)(=O)N([C@@H](C)CO)C[C@H]1C	i	2	1	-0.3
CC(C)CC#Cc1cnc2c(c1)C(=O)N([C@@H](C)CO)C[C@@H](C)[C@@H](CN(C)S(=O)(=O)c1ccccc1)O2	i	3	-15	3.3
C[C@@H]1CN([C@H](C)CO)C(=O)c2cc(NC(=O)Cc3ccccc3)ccc2O[C@@H](C)CCCCO[C@H]1CN(C)C(=O)Nc1cccc2ccccc12	i	-1	-2	-2.7
CO[C@H](CN(C)Cc1nccs1)[C@H](C)CN([C@@H](C)CO)S(=O)(=O)c1ccc(C)cc1	i	-3	4	-0.8
Cc1ccc(S(=O)(=O)N(C)C[C@H]2OCCCC[C@H](C)Oc3ccc(NS(=O)(=O)c4c(C)noc4C)cc3C(=O)N([C@@H](C)CO)C[C@H]2C)cc1	i	1	2	-0.1
COc1ccc(CN(C)C[C@H]2Oc3ccc(NS(=O)(=O)c4ccc(F)cc4)cc3C(=O)N([C@@H](C)CO)C[C@H]2C)cc1	i	4	1	-3.2
C[C@H](CO)N1C[C@H](C)[C@H](CN(C)Cc2ccc(C(=O)O)cc2)Oc2ccc(NC(=O)CCC(F)(F)F)cc2C1=O	i	7	17	-0.7
COc1ccc(S(=O)(=O)Nc2ccc3c(c2)CC(=O)N([C@H](C)CO)C[C@@H](C)[C@@H](CN(C)S(C)(=O)=O)O3)cc1	i	1	-1	-1.8
O=C(Nc1ccc(F)cc1)N1CCCCN2[C@H](CO)[C@@H](c3ccc(C#Cc4ccccn4)cc3)[C@H]2C1	i	2	0	7.7
O=C(C[C@@H]1CC[C@@H]2[C@H](COC[C@@H](O)CN2C(=O)Cc2ccccc2)O1)NC1CCC1	i	1	5	-3.5
CC(C)NC(=O)N(C)C[C@H]1Oc2ccc(NC(=O)Nc3ccccc3)cc2C(=O)N([C@H](C)CO)C[C@H]1C	i	2	2	-1.5
C[C@@H]1CN([C@H](C)CO)C(=O)Cc2cc(NC(=O)Nc3ccccc3)ccc2O[C@H]1CN(C)S(=O)(=O)c1ccccc1	i	-2	0	1.6
COc1cccc(-c2ccc([C@H]3[C@H](CO)N4CCCCN(S(=O)(=O)c5cccs5)C[C@@H]34)cc2)c1	i	-1	0	0.6
C[C@@H]1CN([C@H](C)CO)C(=O)CCCn2nncc2CO[C@@H]1CN(C)Cc1ccc2c(c1)OCCN2C	i	1	1	-0.2
O=C([C@@H]1[C@@H](CO)[C@@H]2Cn3c(ccc(-c4ccncc4)c3=O)[C@@H]2N1CCC(F)(F)F)N1CCOCC1	i	4	6	-0.4
COc1ccc2c3c(n(C)c2c1)[C@@H](CO)N(C(=O)c1cccc(F)c1)CC31CCN(C(=O)c2cccc(F)c2)CC1	i	-6	-12	7.4
CCCN(C)C[C@@H]1Oc2ncc(-c3cccc(C#N)c3)cc2C(=O)N([C@H](C)CO)C[C@@H]1C	i	-3	-5	-1.4
C[C@H]1CN([C@@H](C)CO)C(=O)c2cc(Br)cnc2O[C@@H]1CN(C)C(=O)Nc1ccccc1	i	-2	1	-2.7
CCC(=O)Nc1ccc2c(c1)C(=O)N(C)[C@@H]1CC[C@H](CC(=O)NCC3CCCCC3)O[C@@H]1CO2	i	0	0	-1.2
CC(C)NC(=O)Nc1ccc2c(c1)C(=O)N([C@H](C)CO)C[C@@H](C)[C@@H](CN(C)S(=O)(=O)c1ccc(Cl)cc1)OCCCC[C@H](C)O2	i	-1	-6	-0.5
C[C@@H]1CCCCO[C@H](CN(C)S(=O)(=O)c2cccs2)[C@@H](C)CN([C@@H](C)CO)C(=O)c2cc(NC(=O)Nc3ccccc3)ccc2O1	i	0	2	1.0
Cc1ccc(S(=O)(=O)N(C)C[C@H]2OCCCC[C@H](C)Oc3ccc(NC(=O)Nc4ccc5c(c4)OCO5)cc3C(=O)N([C@@H](C)CO)C[C@H]2C)cc1	i	3	4	-1.9
C[C@H]1CCCCO[C@H](CN(C)S(=O)(=O)c2cccs2)[C@@H](C)CN([C@@H](C)CO)C(=O)c2cc(NC(=O)NC3CCCCC3)ccc2O1	i	-2	-1	1.3
Cc1noc(C)c1S(=O)(=O)Nc1ccc2c(c1)CC(=O)N([C@@H](C)CO)C[C@@H](C)[C@@H](CN(C)Cc1ccc(C(=O)O)cc1)O2	i	0	-1	-0.6
C/C=C/c1ccccc1[C@@H]1[C@@H](C#N)N(C(=O)Cc2ccccn2)[C@H]1CO	i	-1	-6	1.7
COCC(=O)Nc1ccc2c(c1)OC[C@H](C)N(C(=O)Cc1cccnc1)C[C@@H](C)[C@H](OC)CN(C)C2=O	i	2	0	0.9
COC(=O)c1ccc(CN2CC(=O)N3[C@@H](CO)[C@@H](c4ccc(Br)cc4)[C@@H]3C2)cc1	i	-4	-6	-0.8
CO[C@@H]1CN(C)C(=O)c2cc(NC(=O)C3CCCC3)ccc2OC[C@H](C)N(C)C[C@@H]1C	i	5	-3	1.7
CCCC(=O)Nc1ccc2c(c1)OC[C@H](C)N(C(=O)c1ccccn1)C[C@@H](C)[C@H](OC)CN(C)C2=O	i	-1	2	-0.7
CC(C)NC(=O)N(C)C[C@@H]1Oc2c(NS(=O)(=O)c3ccc(F)cc3)cccc2C(=O)N([C@H](C)CO)C[C@H]1C	i	-1	5	-0.6
CO[C@H]1CN(C)C(=O)c2cc(NC(C)=O)ccc2OC[C@H](C)N(Cc2nccs2)C[C@H]1C	i	1	2	-1.1
COc1ccc(S(=O)(=O)Nc2ccc3c(c2)C(=O)N([C@H](C)CO)C[C@H](C)[C@H](CN(C)Cc2ccc4c(c2)OCO4)OCCCC[C@H](C)O3)cc1	i	6	-23	4.1
CO[C@H]1CN(C)C(=O)c2cc(NC(=O)Nc3ccc4c(c3)OCO4)ccc2OC[C@H](C)NC[C@@H]1C	i	8	-1	0.4
Cc1ccc(S(=O)(=O)N(C)C[C@H]2OCCCC[C@@H](C)Oc3ccc(NS(=O)(=O)c4cccs4)cc3C(=O)N([C@H](C)CO)C[C@@H]2C)cc1	i	-2	3	-0.9
CC(C)NC(=O)N(C)C[C@@H]1Oc2ncc(C#CC3(O)CCCC3)cc2C(=O)N([C@@H](C)CO)C[C@@H]1C	i	0	3	-0.6
Cc1noc(C)c1S(=O)(=O)Nc1cccc2c1O[C@@H](CN(C)Cc1ccc(C(=O)Nc3ccccc3N)cc1)[C@@H](C)CN([C@H](C)CO)C2=O	i	-1	14	-3.5
C[C@@H]1CCCCO[C@H](CN(C)Cc2ccccc2)[C@@H](C)CN([C@H](C)CO)C(=O)c2cc(NC(=O)c3ccncc3)ccc2O1	i	1	5	-1.5
Cc1ccc(NC(=O)Nc2ccc3c(c2)C(=O)N(C)[C@@H]2CC[C@H](CC(=O)O)O[C@H]2CO3)cc1	i	0	-1	-1.5

More structures follow:
Molecule	FGF22 binding	rRNA inh HTS	rRNA inh HTS OD600	rRNA inh HTS RFP
COc1ccc(S(=O)(=O)Nc2ccc3c(c2)C(=O)N([C@@H](C)CO)C[C@H](C)[C@@H](CN(C)C(=O)C2CCCCC2)OCCCC[C@@H](C)O3)cc1	i	-1	-1	8.2
COCC(=O)Nc1ccc2c(c1)C(=O)N(C)C[C@H](OC)[C@H](C)CN(C(=O)C1CCCC1)[C@@H](C)CO2	i	-2	0	-2.5
O=C(CN1CCOCC1)NCC[C@H]1CC[C@@H](NC(=O)c2ccc3c(c2)OCO3)[C@H](CO)O1	i	4	1	-0.6
COCC(=O)N1CC2(C1)CN(S(C)(=O)=O)[C@@H](CO)c1c2c2ccc(OC)cc2n1C	i	5	17	-3.0
CN1CCN(C(=O)C[C@@H]2CC[C@H]3[C@@H](COC[C@@H](O)CN3C(=O)c3ccc(F)cc3)O2)CC1	i	1	-3	0.9
C[C@@H]1CN([C@@H](C)CO)C(=O)Cc2cc(NS(=O)(=O)c3cn(C)cn3)ccc2O[C@@H]1CN(C)S(=O)(=O)c1cccs1	i	0	3	1.7
C/C=C/c1ccc2c(c1)[C@@H]1[C@@H](CCN1C(=O)Cc1cccnc1)[C@H](CO)N2C	i	-5	3	1.6
CN(C)C(=O)c1cccc(-c2ccc([C@@H]3[C@@H](C#N)N(C(=O)C4CC4)[C@@H]3CO)cc2)c1	i	-1	-2	0.1
C[C@@H]1CN([C@@H](C)CO)C(=O)Cc2cc(NS(=O)(=O)c3ccc(Cl)cc3)ccc2O[C@H]1CN(C)Cc1ccc(C(=O)Nc2ccccc2N)cc1	i	-4	-13	-0.1
COc1ccccc1-c1ccccc1[C@@H]1[C@H](C#N)N(C(=O)CN(C)C)[C@H]1CO	i	3	4	-0.8
C[C@@H]1CN([C@@H](C)CO)C(=O)CCCn2cc(nn2)CO[C@H]1CN(C)S(=O)(=O)c1ccc(F)cc1	i	0	-1	1.1
CN1CCN(C(=O)C[C@H]2C[C@H]3c4cc(NS(C)(=O)=O)ccc4O[C@H]3[C@H](CO)O2)CC1	i	3	3	-0.4
FC(F)(F)c1ccccc1CN1CCCc2nc(-c3ccc(Br)cc3)ccc21	x	-54	-75	-5.8
COc1ccc(S(=O)(=O)N(C)C[C@@H]2Oc3ccc(NC(=O)Nc4c(C)noc4C)cc3CC(=O)N([C@@H](C)CO)C[C@H]2C)cc1	i	-1	2	-3.0
C[C@H]1CN([C@@H](C)CO)C(=O)c2cc(C#CC3CCCCC3)cnc2O[C@@H]1CN(C)S(C)(=O)=O	i	-2	-12	-0.1
Cc1cc(C(=O)Nc2cccc3c2O[C@H](CN(C)S(=O)(=O)c2ccc(Cl)cc2)[C@H](C)CN([C@@H](C)CO)C3=O)n(C)n1	i	-24*	-16*	0.2*
O=C(CN1CCOCC1)N1CCCCN2[C@@H](CO)[C@H](c3ccc(/C=C/c4ccccc4)cc3)[C@@H]2C1	i	-4	-4	4.4

Shown with values under each structure: 6 of the compounds above
Below each compound: FGF22 binding	rRNA inh HTS	rRNA inh HTS OD600	rRNA inh HTS RFP
C[C@@H]1CN([C@@H](C)CO)C(=O)Cc2cc(NS(=O)(=O)c3ccc(Cl)cc3)ccc2O[C@H]1CN(C)Cc1ccc(C(=O)Nc2ccccc2N)cc1
→ i	-4	-13	-0.1
COc1cccc(-c2ccc([C@H]3[C@H](CO)N4CCCCN(S(=O)(=O)c5cccs5)C[C@@H]34)cc2)c1
→ i	-1	0	0.6
O=C(CN1CCOCC1)NCC[C@H]1CC[C@@H](NC(=O)c2ccc3c(c2)OCO3)[C@H](CO)O1
→ i	4	1	-0.6
Cc1noc(C)c1S(=O)(=O)Nc1cccc2c1O[C@@H](CN(C)Cc1ccc(C(=O)Nc3ccccc3N)cc1)[C@@H](C)CN([C@H](C)CO)C2=O
→ i	-1	14	-3.5
C[C@H]1CN([C@@H](C)CO)C(=O)c2cc(Br)cnc2O[C@H]1CN(C)Cc1ccc2c(c1)OCO2
→ i	2	1	-1.4
COCC(=O)N1CC2(C1)CN(S(C)(=O)=O)[C@@H](CO)c1c2c2ccc(OC)cc2n1C
→ i	5	17	-3.0

Screening results (PubChem)
